# 2A StopGo = FMDV 2A StopGo reporter, luciferase signal. Potency, µM (titrated, usually from 57.9 µM), inactives show top-dose signal change, negative = less light. 410,000 tested, 1.2% active. human cells with a luciferase reporter of 2A StopGo recoding; control for the full effect not named in the record; active = well fitted falling curve with a large enough effect; inconclusive = small, poorly fitted or top-dose-only effect; inactive = no such curve, though single readings can be large or run the other way; tested in HEK293T cells; further: on the % scale 0 is the no-effect control and ±100 the full control effect; nearly all actives have a fitted effect of over 45% in size; luciferase light after 4 h
# Lassa entry inh = Lassa virus entry inhibition | Lassa virus pseudotype entry inhibition, cell reporter; control for the full effect not named in the record | Potency, µM (series often up to 37.9 µM), inactives show at the highest dose activity change, negative = inhibition, hits mostly inhibitors | 300,000 tested, 1.2% active | AID 540256; active means well fitted inhibition curve with a large enough effect; inconclusive means small, poorly fitted or top-dose-only effect, or effect the other way; inactive means flat fitted curve, though single readings scatter; tested in HEK293 cells; further: on the % scale 0 is the no-effect control and ±100 the full control effect; nearly all actives have a fitted effect of over 50% in size; luciferase read-out
# Marburg entry inh = inhibitors of Marburg virus binding or cell entry; Marburg virus pseudotyped entry inhibition, cell reporter; control for the full effect not named in the record; about a third of the inactives were read at about 46 µM; Potency, µM (top dose mostly 37.8 µM), for inactives: at the highest dose activity change, negative = inhibition, hits mostly inhibitors; 300,000 tested, 1.8% active; AID 540276; active = well fitted inhibition curve with a large enough effect; inconclusive = small, poorly fitted or top-dose-only effect, or effect the other way; inactive = flat fitted curve, though single readings scatter; tested in HEK293 cells; about a fifth of its hits are not listed in these tables; further: on the % scale 0 is the no-effect control and ±100 the full control effect; luciferase read-out
# Cruzain inh Det = cruzain (T. cruzi) inhibition with detergent. Potency, µM, inactives show max response, negative = inhibition, usual class: inhibitors. purified cruzain, Z-FR-AMC fluorescence, 0.01% Triton. 200,000 tested, 0.43% active. P25779; active means well fitted curve in the direction sought with a large enough effect; inconclusive means small, poorly fitted or top-dose-only effect, or another doubt; inactive means no such curve, though single readings can be large; an effect the other way counts as inactive or inconclusive;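 further: plate controls were neutral wells for no effect and buffer without enzyme for full effect; nearly all actives have a fitted effect of over 40% in size; top concentration of the series not given in the record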
# Target sequence (P25779 123-467 limits assumed): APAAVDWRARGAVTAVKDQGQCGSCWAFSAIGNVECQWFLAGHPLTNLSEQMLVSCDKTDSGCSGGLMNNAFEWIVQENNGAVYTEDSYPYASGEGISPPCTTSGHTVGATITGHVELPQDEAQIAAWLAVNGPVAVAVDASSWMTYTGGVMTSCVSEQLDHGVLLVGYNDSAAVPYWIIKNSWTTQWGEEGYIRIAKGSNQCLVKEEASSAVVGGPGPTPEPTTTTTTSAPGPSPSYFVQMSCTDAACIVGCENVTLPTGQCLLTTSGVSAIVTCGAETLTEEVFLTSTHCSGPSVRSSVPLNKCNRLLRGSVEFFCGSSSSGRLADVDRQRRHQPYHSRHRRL
#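 Cysteine protease activity tested under reducing, mildly acidic conditions (100 mM sodium acetate pH 5.5, 5 mM DTT) plus 0.01% Triton X-100. Cruzain 1.5 nM; substrate Z-FR-AMC 2 uM; 15 min compound preincubation at room temperature.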
# NS1 function inh = inhibitors of influenza NS1 protein function; Potency, µM (highest dose often 46.1 µM), inactives show top-dose activity, positive = more growth; S. cerevisiae slowed by influenza A NS1, growth recovery by OD600; 270,000 tested, 0.4% active; further: actives are rising curves; nearly all actives have a fitted effect of over 50% in size
#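 S. cerevisiae expressing influenza A NS1, grown in glucose, washed, then diluted 1:100 into pH 6.0 -URA galactose medium with 23 nl compound. Growth recovery read as OD600; NS1-free strain serves as control.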
# Cruzain inh noDet = inhibitors of Trypanosoma cruzi cruzain without detergent; P25779; purified cruzain, Z-FR-AMC fluorescence, no detergent; Potency, µM, for inactives: max response, negative = inhibition, usual class: inhibitors; 200,000 tested, 2.3% active; AID 1476; active means well fitted curve in the direction sought with a large enough effect; inconclusive means small, poorly fitted or top-dose-only effect, or another doubt; inactive means no such curve, though single readings can be large; an effect the other way counts as inactive or inconclusive;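 further: plate controls were enzyme without inhibitor for no effect and buffer without enzyme for full effect; nearly all actives have a fitted effect of over 40% in size; top concentration of the series not given in the record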
#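 Purified cruzain at 1.5 nM, pre-incubated 15 min with compound at room temperature in 100 mM sodium acetate pH 5.5, 5 mM DTT, 0.00005% Triton X-100. Reaction started with 2 uM Z-FR-AMC; AMC fluorescence increase over 60 s gives rate.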
# SARS PLpro yeast = blocks SARS-CoV papain-like protease in a yeast assay | S. cerevisiae expressing SARS-CoV PLpro, growth rescue; control for the full effect not named in the record | Potency, µM (doses to about 32.9 µM), inactives show at the highest dose activity, positive = growth rescue | 330,000 tested, 0.19% active | AID 485353; further: 0% is about no effect; nearly all actives have a fitted effect of over 55% in size; growth read by luminescence after 48 h
# RE007 growth inh = less growth of the S. pombe RE007 Vpr strain. Potency, µM (top dose mostly 92.2 µM), inactives show at the top dose activity change, negative = less growth. 360,000 tested, 0.21% active. S. pombe RE007 Vpr strain, BacTiter-Glo ATP luminescence, 24 h; control for the full effect not named in the record; active = well fitted falling curve with a large enough effect; inconclusive = small, poorly fitted or top-dose-only effect; inactive = no such curve, though single readings can be large or run the other way;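 further: on the % scale 0 is the no-effect control and ±100 the full control effect; nearly all actives have a fitted effect of over 50% in size; the assay follows cell death caused by Vpr and the record does not say whether a fall means rescue or toxicity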
#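 Fission yeast RE007 carrying one integrated HIV-1 vpr copy, seeded at OD 0.01 in PMG+AL medium with 23 nL pinned compound. Grown 24 h at 30 degrees; viability read by BacTiter-Glo luminescence after 5 min.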
# * marks the source's active call; other numbers are inactive results; ? = inconclusive; · = not tested or not shown; & = joins results of further samples; [ ] = dose if it differs, or a comment. Unless noted, the call rests on the fitted dose curve; in most records, active means well fitted rising curve with a large enough effect; inconclusive means small, poorly fitted or top-dose-only effect; inactive means no such curve, though single readings can be large or run the other way. Potency means the concentration at half of the fitted maximal effect.
SMILES,2A StopGo,Lassa entry inh,Marburg entry inh,Cruzain inh Det,NS1 function inh,Cruzain inh noDet,SARS PLpro yeast,RE007 growth inh
COc1ccc(NC(=O)CN(C)C(=O)c2c(C)nn(Cc3ccccc3)c2C)cc1,-2.5%,0.2%[46.1 µM],-3.3%,·,·,·,4.3%,1.7%
COc1cc(NC(=O)c2ccc(-n3cnc4cccnc43)cc2)cc(OC)c1,-14.2%,13.3%[46.1 µM],·,-2.4%,·,-7.3%,·,·
COc1ccccc1OCCn1c(=S)[nH]c2ccccc21,5.0%,?,-21.6%,·,5.4%,·,9.1%,4.4%
COC(=O)c1cccc(NC(=S)NCc2ccc(F)cc2)c1,6.5%,16.8%,?,·,·,·,0.3%,5.1%
CCN1C(=O)[C@H]2[C@@H](c3ccc(C)cc3)N3C(=O)N(c4ccccc4)C(=O)[C@@]3(C)[C@H]2C1=O,0.3%,·,·,·,8.9%,·,4.4%,-10.8%
O=C(c1ccc(CS(=O)(=O)c2ccc(Br)cc2)o1)N1CCN(c2ccc(F)cc2)CC1,?,-9.0%&29.2%[46.1 µM],?,-1.0%,-3.0%,-9.6%,-5.7%,-6.9%
N#C/C(=C\c1ccccc1)C(=O)Nc1nncs1,28.9%,-0.7%,6.4%[46.1 µM],·,2.3%,·,0.9%,-2.5%
Cc1ccc(S(=O)(=O)N2CN(Cc3ccco3)c3nc4ccccc4nc32)cc1C,-9.0%,?,?,0.5%,4.4%,-23.6%,-0.4%,-21.2%
Cc1ccc(C2=NN(C(=O)c3ccccc3F)C(c3ccccc3F)C2)cc1 (stereo not drawn),-16.6%,?,?,·,6.0%,·,-6.6%,-22.0%
CCc1cccc(C)c1NC(=O)CSc1nc2ccccc2nc1Cc1ccccc1,-10.4%,-0.2%[46.1 µM],·,2.9%,·,-3.2%,·,·
COc1ccccc1CNC(=O)CC(C)c1ccccc1 (stereo not drawn),9.7%,·,·,·,-1.4%,·,-2.4%,10.2%
Cc1ccc(CNC(=O)CCSCCC(=O)NCc2ccc(C)cc2)cc1,3.6%,4.4%,1.3%,1.9%,-3.3%,-9.1%,5.2%,-7.9%
Cc1ccc(-c2nn3c(C)nnc3c3ccccc23)cc1S(=O)(=O)NC(C)c1ccccc1 (stereo not drawn),-3.9%,?,?,0.9%,-11.1%,-14.9%,-4.7%,3.7%
C=CCn1c(SCC(=O)N2CCOCC2)nc2scc(-c3ccco3)c2c1=O,-15.1%,10.3µM*,-13.4%,-12.8%,12.8%,?,-3.2%,-12.6%
CCC(C)NC(=O)CN(C1CCCCC1)S(=O)(=O)c1ccc(F)cc1 (stereo not drawn),-4.0%,-18.0%,-9.3%,·,15.6%,·,6.6%,-6.1%
COCCn1c(=O)[nH]c2cc(C(=O)N3CCN(c4ccccc4OC)CC3)ccc2c1=O,3.2%,0.5%,2.3%&2.3%,-0.9%,-8.7%,29.4%,7.9%,-6.0%
CCOC(=O)CC(NC(=O)c1cc2cccc(OC)c2oc1=O)c1ccc(OC)cc1 (stereo not drawn),71.2%[activator],·,·,·,-9.1%,·,-0.5%,-8.0%
Cc1ccc(CNC(=O)Nc2ccc(C)cc2)cc1,56.3%[activator],·,·,·,3.9%,·,0.7%,0.8%
Cc1nc2c(n1O)CCC/C2=N\O,0.0%,-6.3%,-12.9%,4.4%,9.7%,9.0%,5.0%,12.0%
CCOC(=O)CCCNC(=O)COC(=O)c1cccc(C)c1O,-17.8%,9.2%,-7.4%,-2.1%,-8.7%,4.2%,2.1%,-20.9%
CC(=O)Nc1cccc(C(=O)OCc2ccccc2)c1,25.8%,6.5%,?,-0.2%,-59.0%,-9.5%,-34.2%,5.6%
O=C1C2C3c4ccccc4C(c4ccccc43)C2C(=O)N1Cc1ccccn1 (stereo not drawn),-9.8%,16.2%[46.1 µM],-16.6%[46.1 µM],·,·,·,-3.7%,1.1%
CC(C)(C)NC(=S)NCc1ccncc1,-7.8%,1.6%[46.1 µM],-3.8%[46.1 µM],·,4.0%,·,1.8%,0.1%
COc1cccc(C(=O)NCCS(=O)(=O)N(C)Cc2ccccc2)c1,-2.9%,-6.3%,14.1%,·,·,·,3.7%,24.2%
COc1ccc(Oc2c(Cl)cnn(-c3ccc(C)cc3)c2=O)cc1,0.0%,?,10µM*,1.6%,-7.8%,-6.3%,-17.4%,?
COc1ccccc1NC(=S)NC(NC(=O)C(C)C)C(Cl)(Cl)Cl (stereo not drawn),-16.9%,-11.2%,1.3%[46.1 µM],·,0.6%,·,0.9%,4.4%
O=c1c(Cl)c(Cl)cnn1-c1ccccc1,?,?,25.9µM*,-3.6%,-11.4%,-3.4%,-72.5%,-13.4%
Cc1cnc(C)c(N2CCC(C(=O)NCc3ccco3)CC2)n1,-18.6%,17.2%,?,4.4%,3.6%,-0.5%,9.3%,12.0%
Cc1cc(N/N=C/c2ccc(O)c(C)c2O)nc(-c2ccccc2O)n1,-16.3%,?,?,-2.8%,2.8%,-28.6%,-80.0%,?
O=[N+]([O-])c1ccc(-c2ccc(/C=N/Nc3nc(N4CCCC4)nc(N4CCCC4)n3)o2)cc1,-21.0%,-4.9%[46.1 µM],-20.2%[46.1 µM],·,·,·,-0.3%,-16.2%
COc1cccc(Nc2nc3cc(Cl)c(Cl)cc3nc2-n2nc(C)cc2C)c1,-0.5%,13.2%[46.1 µM],8.5%[46.1 µM],-0.7%,·,0.3%,·,·
Cc1ccc(C(c2nnnn2C2CCCC2)N2CCN3CCCC3C2)cc1 (stereo not drawn),2.5%,-22.9%,?,4.4%,-3.8%,6.7%,2.3%,2.0%
COc1ccc(Cl)cc1Nc1nc(-c2sc(NC(=O)C(C)(C)C)nc2C)cs1,-34.7%,·,·,1.9%,11.8%,-24.4%,0.4%,8.0%
CCCc1cc(C(=O)OCC(=O)N2CCN(c3ccc(OC)cc3)CC2)sc1C,?,-17.8%,18.8%,·,·,·,-3.8%,8.8%
Cc1nnc(SCc2cc(=O)[nH]c(N3CCN(Cc4ccccc4)CC3)n2)s1,0.0%,1.6%,?,2.6%,-3.0%,0.6%,1.0%,2.5%
Cc1ccc(N2C(=O)CC(Sc3nc(C)cc(C)n3)C2=O)cc1 (stereo not drawn),-11.3%,·,·,·,16.3%,·,-6.9%,4.0%
CCC(c1nnnn1Cc1ccc(F)cc1)N(CCCO)Cc1cc2cc3c(cc2[nH]c1=O)OCO3 (stereo not drawn),0.0%,?,-3.6%&-3.6%[46.1 µM],-6.7%,-15.6%,17.1%,-1.3%,-9.1%
COc1ccc(-c2csc(NNC3=NCCCCC3)n2)cc1,-14.1%,3.2%,?,·,·,·,1.3%,128.6%
CC(C)Oc1ccc(C2CC(=O)N(c3cccc(C(=O)O)c3)C2=O)cc1 (stereo not drawn),55.1%[activator],-4.7%,?,3.9%,3.6%,-4.6%,6.7%,2.8%
c1ccc2c(c1)CCCN2Cc1nnnn1CC1CCCO1 (stereo not drawn),0.1%,13.4%,5.8%,-1.5%,-0.1%,11.0%,2.6%,-0.6%
CCc1nnc(NC(=O)CSc2nnc(COc3ccc(C#N)cc3)n2-c2ccccc2)s1,-0.7%,6.2%,24.4%,1.6%,-11.9%,-6.9%,1.9%,0.9%
Cc1ccc(C)c(S(=O)(=O)N2CCN(C(=O)c3ccnn3C)CC2)c1,-17.1%,-16.6%,21.7%,·,5.0%,·,-3.8%,1.9%
COc1ccc(S(=O)(=O)Nc2ccc(N3CCOCC3)nc2)cc1,-23.7%,6.1%,-9.6%[46.1 µM],·,·,·,2.1%,0.1%
Cc1ccc(-c2csc(NC(=O)CCNC(=O)c3ccco3)n2)cc1,-8.2%,-9.0%,?,·,·,·,-0.6%,11.6%
Cc1cc(NC(=O)C(C)SCC(=O)Nc2ccc(SC(F)F)cc2)no1 (stereo not drawn),-23.8%,-20.6%,-12.2%,·,16.9%,·,·,2.5%
Cc1n[nH]c(=O)n1-c1ccc(OC(F)(F)F)cc1,17.3%,3.5%[46.1 µM],-8.1%[46.1 µM],·,·,·,-0.1%,7.3%
O=C(Cc1cccs1)N=Nc1c(O)[nH]c2ccccc12,24.5%,·,·,·,-65.8%,·,-2.0%,16.0%
CC1CN(c2ccc([N+](=O)[O-])cc2C(=O)N2CCOCC2)CC(C)N1 (stereo not drawn),-3.0%,-0.3%,1.2%,-6.7%,13.6%,-15.5%,2.7%,2.1%
CCCOc1ccc(C(=O)CCNC(Cc2c[nH]c3ccccc23)C(=O)O)cc1 (stereo not drawn),-4.6%,·,·,·,1.1%,·,1.7%,?
CCN(CC)S(=O)(=O)c1cccc(C(=O)N/N=C(\C)c2cccs2)c1,11.8%,?,9.5%[46.1 µM],·,·,·,1.2%,-10.8%
CCn1ccnc1CN(C)Cc1nc(Cc2cccc(C(F)(F)F)c2)no1,-5.0%,-2.0%,-1.8%[46.1 µM],·,-3.3%,·,0.6%,-14.7%
O=c1[nH]cccc1-c1nc2ccccc2n1Cc1ccccc1F,-10.5%,·,·,·,1.5%,·,0.3%,-16.2%
C[n+]1cc2c3c(ccc2c2ccc4cc5c(cc4c21)OCO5)OCO3,25.1µM*,·,0.891µM*,2.4%&-6.7%&-5.1%&-8.4%,22.3%,?,·,·
CC1CCC(C(C)C)C(OCC(O)CN2CCN(Cc3ccccc3)CC2)C1 (stereo not drawn),?,8.91µM*,?,4.5%,-53.1%,8.9%,-8.3%,3.9%
CN(C)c1ccc(NC(=O)CC2NCCNC2=O)cc1 (stereo not drawn),40.5%[activator],9.6%,10.0%,5.5%,2.9%,2.8%,·,13.4%

# Bioassay records from PubChem BioAssay.
